Assay outcomes as filed in PubChem BioAssay.
GLA inh pH 4.5: alpha-galactosidase A (human) inhibition, pH 4.5. purified enzyme, 4-MU-alpha-Gal fluorescence, pH 4.5. AID 1467. P06280. activity change, negative = inhibition, % at 105 µM. 230,000 tested, under 10 active; inconclusive = small, poorly fitted or top-dose-only inhibition, or a rising curve; inactive = flat fitted curve, though single readings scatter; no compound was filed as active;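 note: 0% = full activity with enzyme and -100% = basal without enzyme; dose as in the result columns while the protocol names 77 µM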
Rango-impB inh: Rango-importin beta binding inhibition. Q14974. Rango CFP/YFP FRET sensor + importin beta, 45 min. Potency, µM (titrated, usually from 92.2 µM), inactives show top-dose inhibition of complex formation. hit rate 0.031% among 340,000; active = rising FRET ratio curve, often small or poorly fitted; inconclusive = mostly compound fluorescence or quenching in the first reads; inactive = flat curves in all reads;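 note: potency is the fitted concentration of half-maximal effect; 0% = DMSO wells and 100% = buffer wells lacking importin beta; nearly all actives have a fitted effect of over 15% in size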
Target sequence (Q14974 whole entry, looked up): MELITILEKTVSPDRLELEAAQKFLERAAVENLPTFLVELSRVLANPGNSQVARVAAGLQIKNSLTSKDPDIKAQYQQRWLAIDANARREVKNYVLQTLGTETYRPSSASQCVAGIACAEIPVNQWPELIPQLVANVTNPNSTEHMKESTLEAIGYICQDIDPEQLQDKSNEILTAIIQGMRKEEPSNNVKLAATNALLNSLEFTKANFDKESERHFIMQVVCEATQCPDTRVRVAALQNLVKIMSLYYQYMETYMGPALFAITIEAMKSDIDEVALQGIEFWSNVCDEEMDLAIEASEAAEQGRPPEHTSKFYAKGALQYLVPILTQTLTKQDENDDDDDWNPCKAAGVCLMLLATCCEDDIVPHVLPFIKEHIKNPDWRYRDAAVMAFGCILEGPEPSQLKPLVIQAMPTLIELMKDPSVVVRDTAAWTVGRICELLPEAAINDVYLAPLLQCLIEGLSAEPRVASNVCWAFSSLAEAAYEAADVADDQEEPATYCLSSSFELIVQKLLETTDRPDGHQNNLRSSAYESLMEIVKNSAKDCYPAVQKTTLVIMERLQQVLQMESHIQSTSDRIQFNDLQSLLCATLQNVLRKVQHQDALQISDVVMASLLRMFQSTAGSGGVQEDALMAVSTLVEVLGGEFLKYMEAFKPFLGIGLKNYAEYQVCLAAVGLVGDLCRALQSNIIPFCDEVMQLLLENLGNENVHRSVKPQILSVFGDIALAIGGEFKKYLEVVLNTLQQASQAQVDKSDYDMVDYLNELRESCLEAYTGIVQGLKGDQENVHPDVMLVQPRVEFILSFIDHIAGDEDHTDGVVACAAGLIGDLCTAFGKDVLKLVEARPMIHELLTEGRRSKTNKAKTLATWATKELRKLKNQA
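Inhibition scored from the CFP 486 nm/YFP 530 nm FRET ratio 45 min after adding 0.125 microM importin beta to 50 nM Rango biosensor preincubated 5 min with compound (room temperature, PBS with DTT, Tween-20, BSA). No-importin wells as positive control.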
Rango release inh: inhibitors of RanGTP-induced Rango-importin beta complex dissociation. O95149+P62826. Biochemical FRET Rango-importin beta, RanGTP-induced dissociation. Potency, µM (series often up to 46.1 µM), inactives show at the highest dose activity change, negative = inhibition. hit rate 0.071% among 340,000. AID 540253; active means falling FRET ratio curve, often poorly fitted, with flat reads before Ran was added; inconclusive means other falling curves, or compound fluorescence or quenching; inactive means flat or rising ratio curve;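 note: potency is the fitted concentration of half-maximal effect; % of control where 0% means no effect; nearly all actives have a fitted effect of over 45% in size; -100% = wells without RanGTP and RCC1; the record marks most hits as doubtful in a second field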
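FRET read at 45 min, room temperature: inhibitors block the CFP/YFP signal rise when RanGTP (0.6 uM Ran, 2 mM GTP, 0.2 uM RCC1) frees Rango (0.1 uM) from importin beta (0.25 uM). Pre-read after 5 min compound exposure flags interference.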
miR-21 reporter: miR-21 reporter, rising signal. HeLa miR-21 FLuc reporter, luciferase, 48 h. Potency, µM (titrated, usually from 38.3 µM), inactives show at the top dose reporter change, positive = more light. 340,000 tested, under 10 active. AID 2288; active = well fitted rising curve with a large enough effect; inconclusive = small, poorly fitted or top-dose-only effect; inactive = no such curve, though single readings can be large or run the other way;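 note: % of control where 0% means no effect; miR-21 action dims this reporter so a rising signal means less miR-21 action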
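Using DMEM plus 10% FBS, HeLa miR-21-FLuc cells are incubated with test compounds (final up to about 40uM) for 48 hours; firefly luciferase signal is then imaged following reagent-mediated lysis.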
Starred values were filed as active, the others as inactive; ? = inconclusive; . = not tested or not shown; & = joins results of further samples; [ ] = remark or other dose.

GLA inh pH 4.5	Rango-impB inh	Rango release inh	miR-21 reporter	molecule
6.6	0.0%	0.6%	-3.7%	Cc1csc(SCC(=O)N(C)c2c(N)n(Cc3ccccc3)c(=O)[nH]c2=O)n1
-5.5	2.5%	-14.4%	3.2%	Cc1ccc(C(=O)O/N=C(\c2ccccc2)c2ccncc2)cc1
-1.3	-3.5%	-9.7%	-0.6%	COC(=O)c1scc(C)c1NC(=O)CSc1ccc(Cl)cc1
3.6	2.3%	-5.0%	-18.7%	O=C(CN1CCOCC1)Nc1nc2ccc(Br)cc2s1
7.4	0.1%	7.1%	-6.6%	C=CCN(c1ccc(C(=O)Nc2ccc3c(c2)OCO3)cc1)S(C)(=O)=O
.	-1.2%	-5.6%	-0.1%	CCOc1ccc(CCNC(=O)COC(=O)C2CCN(S(=O)(=O)c3ccc(C)c(C)c3)CC2)cc1OCC
-0.5	0.0%	-5.7%	0.1%	O=C(CSc1nnnn1-c1cccc2ccccc12)Nc1ccc(N2CCOCC2)c(Cl)c1
.	-3.1%	10.7%	.	CCOC(=O)c1[nH]c(=S)n(Cc2ccccc2)c1C(=O)OCC
.	-0.6%	0.3%	.	C=CCC[C@@H](Cc1ccc(F)cc1)C(=O)OC[C@@H](Cc1c[nH]c2ccccc12)NC(=O)[C@H](CC=C)CC(=O)NCCO
7.5	1.2%	15.8%	-6.6%	CC(=O)OC(C(=O)NC1CCCCC1)c1ccc(C#N)cc1 (stereo not drawn)
-19.5	-1.4%	23.3%	4.3%&9.7%	CCc1cccc(NC(=O)CN(C)S(=O)(=O)c2cccc3cccnc23)c1
-6.3	.	.	-1.5%	COc1cc(C(=O)Nc2c(-c3ccccn3)c(=O)c3ccccc3n2C)cc(OC)c1OC
.	-1.3%	-2.2%	0.8%	COc1ccc(/C=N/NC(=O)CNC(=O)/C=C/c2ccccc2OC)cc1
-8.0	-1.8%	18.6%	2.3%	O=C(Nc1cccc(C(=O)O)c1)/C(=C\C=C\c1ccccc1)NC(=O)c1ccccc1
.	-1.4%	16.8%	.	C=CC[C@@H](CC(=O)NCCO)C(=O)N[C@@H](COC(=O)[C@@H](CC=C)Cc1ccc(F)cc1)Cc1c[nH]c2ccccc12
2.9	0.9%	1.5%	-4.8%	CCCn1nnnc1SCC(=O)N1CCCC1
-8.0	-1.4%	1.4%	-22.6%	COCCn1c(SC)nnc1-c1c[nH]c2ccccc12
1.1	-1.6%	0.8%	11.8%	CCOC(=O)c1cc2c(ccn2C)n1CC(=O)N(Cc1ccccc1)c1ccc(F)cc1
8.5	-0.3%	-7.0%	-15.7%	Cn1c(=O)c2nc(-c3ccc(Cl)cc3Cl)oc2c2ccccc21
-11.7	5.4%	19.0%	-13.1%	Cc1ccc(S(=O)(=O)N2CCN=C2c2ccccc2)cc1C
-16.1	2.4%	1.7%	?	Cc1ccc(/C=C2\SC(=S)N(CCCC(=O)Nc3ccc(O)cc3)C2=O)cc1
-6.2	4.0%	9.3%	-11.9%	O=C(Cn1cnc([N+](=O)[O-])c1)NC1CCCC1
5.6	?	-15.1%	-1.2%	CCOc1cc(NC(=O)c2ccccn2)c(OCC)cc1NC(=O)c1cccc(C)c1
-7.1	3.3%	-20.9%	3.5%	Cc1ccccc1C1C(C#N)=C2N=C(N)c3ccccc3N2C2=C1C(=O)CCC2 (stereo not drawn)
-2.3	-1.5%	-14.0%	-1.7%	S=c1[nH]nc(-c2ccc(Cl)cc2)n1CC1CCCO1 (stereo not drawn)
.	0.9%	0.9%	.	CC(C)N1CCN(c2ccc(OC[C@H]3CO[C@](Cn4cncn4)(c4ccc(Cl)cc4Cl)O3)cc2)CC1
5.9	-4.0%	-2.3%	-2.7%	CC1=CC(C)(C)N(C(=O)CSc2ncn[nH]2)c2ccc(C)cc21
3.9	-0.2%	13.8%	-15.5%	CNC(=S)N/N=C/c1c(C)nn(-c2ccccc2)c1Cl
0.7	0.1%	1.4%	17.5%	CC1(C)Cc2c(sc(NC(=O)c3ccccc3)c2C(=O)O)CO1
.	-0.4%	11.3%	-3.5%	COc1ccccc1-n1c(SCC(=O)O)nc2c(sc(=S)n2-c2ccccc2C)c1=O
6.0	-2.7%	9.7%	-10.9%	CCOc1cc2[nH]c(=O)n(CCCC(=O)NCc3ccco3)c(=O)c2cc1OCC
.	-1.1%	-11.5%	.	COc1ccc(CCC(=O)OCC(=O)Nc2c(C)nn(-c3ccccc3)c2C)cc1
2.2	-0.3%	-12.4%	3.0%	CC(C)CNS(=O)(=O)c1ccc(NC(=O)Cn2nc(-c3ccc(F)cc3)ccc2=O)cc1
-5.6	1.0%	7.6%	1.3%	COc1ccc(NC(=O)C(c2ccccc2)N(C)C(=O)c2cnccn2)cc1 (stereo not drawn)
5.8	2.9%	0.0%	-5.8%	c1ccc2[nH]c(CSc3nnc(-c4ccncc4)o3)nc2c1
-4.4	-3.4%	?	-7.7%	CCN1CCN(c2nc3c(C)cccn3c(=O)c2/C=C(\C#N)S(=O)(=O)c2ccccc2)CC1
-3.6	2.7%	-6.4%	-2.4%	O=C(O)c1cccc(NC(=O)C23CC4CC(C2)CC(n2cnc(Cl)n2)(C4)C3)c1
10.4	0.3%	-3.2%	-3.4%	NC(=O)CC(NC(=O)Cc1cccc2ccccc12)c1ccc(NCc2cc(F)ccc2F)c([N+](=O)[O-])c1 (stereo not drawn)
.	-3.4%	-15.8%	-2.8%	Cc1ccc(-c2ccc(=O)n(CC(=O)NCCN(CC(C)C)CC(C)C)n2)cc1
-1.5	5.1%	-6.0%	-7.4%	CN(C)c1ccc(/C=N/NC(N)=S)cc1[N+](=O)[O-]
-9.3	-5.6%	1.0%	2.1%	Cc1cccc(C(=O)NNC(=O)c2cccc([N+](=O)[O-])c2)c1
.	4.3%	-18.0%	-0.1%	O=C(Cn1c2ccccc2c2nc3n(c(=O)c21)CCCS3)Nc1ccccc1
.	3.7%	5.0%	2.2%	C/C(CC(=O)Nc1ccc2c(c1)OCCO2)=N\NC(=O)c1ccc([N+](=O)[O-])cc1Cl
-2.1	3.3%	7.1%	-7.1%	COC(=O)C1=C(C)N(c2ccc(C)cc2)/C(=C/c2cccs2)C1=O
.	-0.6%	1.1%	.	CN(Cc1ccccc1)C(=O)COC(=O)c1ccc[nH]c1=O
4.9	4.5%	0.9%	21.6%	COc1ccc(-n2c(C)cc(C(=O)CN3C(=O)C(=O)N(Cc4ccccc4)C3=O)c2C)cc1
.	-4.0%	-0.4%	0.0%	CCn1c(SCC(=O)NCc2ccc3c(c2)OCO3)nnc1-c1ccco1
5.6	1.3%	4.7%	-4.6%	N=c1n(CCN2CCCC2)c2ccccc2n1CC(O)c1ccco1 (stereo not drawn)
2.5	?	5.1%	-13.6%	N#Cc1cnn2c(C(F)(F)F)c3c(nc12)CCCC3
-5.3	2.3%	2.2%	-10.4%	Cc1cc(C)nc(/N=C(\N)Nc2ccc([N+](=O)[O-])cc2)n1

The list continues:
GLA inh pH 4.5	Rango-impB inh	Rango release inh	miR-21 reporter	molecule
.	-2.8%	-0.8%	0.4%	O=C(CCN1C(=O)[C@@H]2Cc3ccccc3CN2C1=O)NCc1ccccc1Cl
.	3.7%	1.1%	-10.3%	CC(=O)Nc1ccc(S(=O)(=O)NCCC(=O)Nc2ccc(C)cn2)cc1
5.1	-3.0%	-14.2%	-9.4%	C=CCOC(=O)C1=C[C@H](c2coc3ccccc3c2=O)[C@@H](CCCO)[C@H](OCC)O1
-2.2	3.9%	-0.2%	-44.1%	CC(NC(=O)c1noc2c1CCCCC2)c1ccccc1 (stereo not drawn)
.	?	-6.6%	3.8%	O=C(NCc1ccc(Cl)cc1)C1CCC(=O)N(C2CCCCCC2)C1 (stereo not drawn)
-8.4	-4.1%	-4.2%	-13.1%	CCOCCCNC(=O)/C(C#N)=C/c1ccc(C)o1
3.8	-2.8%	-3.8%	-0.8%	NS(=O)(=O)c1ccc(CCNC(=S)NC2CCCCC2)cc1
.	-1.2%	0.7%	.	Cc1cccn2c(=O)nc(SCC(=O)NCc3ccccc3)nc12
-0.4	-2.1%	0.6%	2.4%	COc1cccc(N2CCN(C(=O)c3ccc(=O)oc3)CC2C)c1 (stereo not drawn)
5.1	-1.2%	-9.6%	-6.4%	O=C(Nc1ccc(N2CCOCC2)cc1)Nc1ccc(Cl)c(Cl)c1
6.7[21.1 µM]	-1.2%	-0.5%	-46.7%	CCNC(=O)Nc1nc2ccccc2s1
3.0	-1.5%	-4.8%	-6.1%	CC(=O)c1cc(-c2ccccc2)n(CCC(=O)NC(C)(C)C)c1C
-0.1	1.1%	5.3%	-5.8%	C/C(=N\NC(=O)C1COc2ccccc2O1)c1ccccn1 (stereo not drawn)
.	-0.5%	-2.5%	0.4%	COc1ccc(NC(=O)CN2CCN(CC(=O)Nc3ccc(F)cc3)CC2)cc1Cl
.	3.9%	-17.9%	.	O=C(O)c1ccc(N2C(=O)CSC2=S)cc1
-8.1	-3.1%	0.2%	-2.0%	Nc1c(C(=O)NCC2CCCO2)sc(=S)n1-c1ccccc1 (stereo not drawn)
-3.5	-0.1%	1.0%	0.3%	O=C1N(c2ccccc2)C(c2ccccc2)N2CCCN12 (stereo not drawn)
.	3.7%	0.1%	.	CC(OC(=O)C1=COCCO1)C(=O)NC(C)c1ccc(Cl)cc1Cl (stereo not drawn)
3.1	0.4%	-4.9%	-9.9%	CCCCC(=O)NC1=NC(=O)C(C)(C)S1
12.3	2.1%	-2.6%	-1.4%	CCn1nc(C)cc1-c1n[nH]c(=S)n1N
-0.3	-0.1%	-8.7%	-68.6%	Cc1ccc(NC(=O)COc2ccc(Br)cc2C)cc1
.	-2.1%	6.5%	2.6%&-4.2%	COc1ccc(NC(=O)CN2C(=O)CSc3ccc(S(=O)(=O)N4CCCC4)cc32)cc1OC
3.1&6.1	-0.1%	1.0%	0.0%	COCCN1C(=O)N[C@@H](c2ccccc2)C(C(C)=O)=C1C
.	3.7%	-2.4%	-0.5%	COc1cccc(Cn2cc(/C=N/NC(=O)c3cc(O)cc(O)c3)c3ccccc32)c1
3.2	?	-9.8%	-6.4%	CC1(C)CC2CC(C)(CN2C(=O)NC(=O)c2ccccc2)C1 (stereo not drawn)
.	-1.0%	0.4%	-0.3%	COc1ccc(NC(=O)C2CCN(C(=O)C3CC(=O)N(c4ccc(C)cc4)C3)CC2)cc1 (stereo not drawn)
.	3.9%	5.5%	.	O=C(Nc1ccccc1Br)C1CC(=O)N(c2ccc3c(c2)OCCO3)C1 (stereo not drawn)
.	?	-4.4%	5.8%	O=C(C(Cl)Cl)N1CCN(Cc2ccc3c(c2)OCO3)CC1
-1.2	3.4%	-11.7%	-3.2%	C=CCn1c(=O)/c(=C\c2ccccn2)s/c1=C(/C#N)C(=O)NCC1CCCO1 (stereo not drawn)

An excerpt; count on the stated rates, not on these rows.
